ClpP mod: qHTS Assay for Activators of ClpP; ATP-dependent Clp protease proteolytic subunit (Bacillus subtilis (strain 168)), P80244; purified B. subtilis ClpP, FRET peptide cleavage, 20 min; Potency, µM (series often up to 57.5 µM), for inactives: at the top dose activity change, negative = active; actives 1.9% (n = 340,000); AID 651965, 2013; active = well fitted falling curve with a large enough effect; inconclusive = small, poorly fitted or top-dose-only effect; inactive = no such curve, though single readings can be large or run the other way; note: potency is the fitted concentration of half-maximal effect; the source files actives as falling curves though it sought activators and does not explain the sign; nearly all actives have a fitted effect of over 65% in size; many hits overshoot -100%
Target sequence (P80244 whole entry, looked up): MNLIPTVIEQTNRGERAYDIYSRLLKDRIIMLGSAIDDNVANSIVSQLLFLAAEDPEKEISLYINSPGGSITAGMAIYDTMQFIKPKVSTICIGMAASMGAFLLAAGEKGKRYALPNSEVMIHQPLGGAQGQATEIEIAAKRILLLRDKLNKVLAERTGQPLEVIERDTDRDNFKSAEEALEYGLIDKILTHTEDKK
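ClpP 10 microg/mL final, pH 8 Tris/KCl buffer with BSA, glycerol, Tween-20; compound pinned in; FRET-FV substrate; RT 20 min; Ex320/Em430; ΔFRET vs ADEP 5.8 microM, DMSO, no enzyme.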
Menin-MLL FL inh: displaces fluorescein MLL peptide from human menin; FP activity change, % at 61.4 µM; 290,000 tested, under 10 active; Fluorescence polarization, fluorescein-MLL peptide displacement from menin; AID 1766; inconclusive = falling polarisation curve, or a change in total fluorescence; inactive = total fluorescence flat and polarisation flat or rising; no compound was filed as active; the % refers to the polarisation; negative = inhibition;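 note: % of control where 0% means no effect; inhibitors lower the polarisation; unlabelled MLL peptide was the positive control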
D2 ag: human D2 receptor agonism in beta-arrestin assay | activation, % (concentration not given with the values) | actives 0.084% (n = 360,000) | P14416 | DiscoveRx PathHunter D2 beta-arrestin, luminescence, 90 min; 100% = 57 uM dopamine signal; in the data active = activation above about 40%; inconclusive = about 15% to 40%; inactive = below about 15%; note: compound concentration not given in the record; the text of the record calls up to 30% inactive
Target sequence (P14416 whole entry, looked up): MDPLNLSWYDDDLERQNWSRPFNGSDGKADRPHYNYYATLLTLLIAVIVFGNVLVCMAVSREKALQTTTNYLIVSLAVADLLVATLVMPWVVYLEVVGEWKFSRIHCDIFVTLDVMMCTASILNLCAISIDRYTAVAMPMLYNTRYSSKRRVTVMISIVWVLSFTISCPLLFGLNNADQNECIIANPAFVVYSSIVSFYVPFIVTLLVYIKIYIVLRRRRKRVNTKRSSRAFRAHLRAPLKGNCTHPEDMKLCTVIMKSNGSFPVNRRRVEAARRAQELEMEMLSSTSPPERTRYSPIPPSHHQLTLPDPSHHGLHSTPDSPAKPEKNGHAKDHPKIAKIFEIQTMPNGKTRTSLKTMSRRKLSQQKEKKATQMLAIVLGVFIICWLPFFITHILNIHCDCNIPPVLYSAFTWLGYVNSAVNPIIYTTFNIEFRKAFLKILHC
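Agonist mode: compounds alone added to overnight-plated D2 PathHunter cells for 90 min at 37 C, with 57 uM final dopamine (EC100) defining full response. Beta-arrestin recruitment detected by chemiluminescent reagent, read after 1 h at ambient temperature.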
PINK1 expr mod: PINK1 expression modulation; PINK1 immunofluorescence, high-content cytometry, 24 h; Potency, µM (series often up to 76.6 µM), without a hit: at the top dose activation (PINK1 increase), most hits filed as activators; actives 0.2% (n = 410,000); active = well fitted activation curve with a large enough effect; inconclusive = small, poorly fitted or top-dose-only effect; inactive = flat fitted curve, though single readings scatter; cell line not stated here;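 note: potency is the fitted concentration of half-maximal effect; % of control where 0% means no effect; nearly all actives have a fitted effect of over 65% in size; a mitochondrial uncoupler was the plate control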
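Cells are seeded, rested 12 hours, then given compound at five concentrations or DMSO for 24 hours. After fixation, blocking and antibody staining, PINK1 amount and mitochondrial localization are scored; CCCP serves as control.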
gsp antagonist: antagonists of gsp mutant (McCune-Albright syndrome); gsp-mutant cells, cAMP HTRF, 30 min; control for the full effect not named in the record; Potency, µM (doses to about 76.9 µM), for the others: at the top dose activity change, negative = inhibition, most hits filed as inhibitors; actives 0.4% (n = 340,000); AID 624288; active = falling curve of any shape with a large fitted effect; inconclusive = falling curve, mostly with a smaller effect; inactive = flat or rising curve; cell line not stated here;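 note: intracellular cAMP measured with PDE inhibitor Ro 20-1724 present during compound exposure; potency is the fitted concentration of half-maximal effect; % is set by controls: 0 for no effect and ±100 for the full control effect; nearly all actives have a fitted effect of over 65% in size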
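Cells in G418 medium, seeded 16-24 h, 37C; buffer exchange to DPBS + 1 mM CaCl2, 0.5 mM MgCl2, 0.05% BSA; cpds in DMSO + […] (300 uM stock), 30 min 37C; HTRF cAMP detection.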
gsp ag: activates gsp, the McCune-Albright syndrome mutation | Potency, µM (top dose mostly 76.9 µM), for the others: at the top dose activation (cAMP increase), usual class: activators | actives 0.13% (n = 340,000) | gsp mutant cells, cAMP HTRF, 30 min; control for the full effect not named in the record; active = well fitted activation curve with a large enough effect; inconclusive = small, poorly fitted or top-dose-only effect, or another doubt; inactive = no such curve, though single readings can be large or run the other way; cell line not stated here;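 note: phosphodiesterase inhibitor Ro 20-1724 added with compounds to block cAMP breakdown; potency is the fitted concentration of half-maximal effect; nearly all actives have a fitted effect of over 60% in size; about a fifth of the inactives were tested at one dose only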
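Cells stably selected in G418 were plated at 2000/well, grown 16-24 hr, then given compounds in DMSO with the PDE inhibitor […] (300 uM solution added) for 30 min at 37C; cAMP was read by HTRF.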
Sfp inh: blocks B. subtilis Sfp PPTase activity | Q9F4F7 | Biochemical Sfp PPTase activity, qHTS | Potency, µM, inactives show max response, negative = inhibition, actives largely listed as inhibitors | actives 3.5% (n = 310,000); active = well fitted inhibition curve with a large enough effect; inconclusive = small, poorly fitted or top-dose-only effect, or another doubt; inactive = no such curve, though single readings can be large or run the other way;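 note: the enzyme is Sfp with the accession as filed and its product quenches rhodamine fluorescence; potency is the fitted concentration of half-maximal effect; 0% = enzyme reaction without inhibitor and -100% = no enzyme wells; top concentration of the series not given in the record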
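Fluorescence-quenching assay with 15 nM Sfp, 5 uM rhodamine-CoA and 12.5 uM BHQ-2-labelled ybbR peptide in pH 7.6 Hepes/MgCl2 buffer. Enzyme was pre-incubated with compound for 15 min at room temperature. Rate was taken from the 30-min fluorescence change (525/598 nm).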
* marks the source's active call; other numbers are inactive results; ? = inconclusive; . = no result given; & = joins results of further samples; [ ] = dose if it differs, or a comment.

SMILES | ClpP mod | Menin-MLL FL inh | D2 ag | PINK1 expr mod | gsp antagonist | gsp ag | Sfp inh
CN(C)C(=O)Oc1ccc(OCc2nc3ccccc3[nH]2)cc1 | -2.3% | 0.8 | 0.7 | 2.5% | -4% | 2%[15.4 µM] | -5%
COc1ccccc1OCCCn1cc(C(C)=O)c2ccccc21 | . | -2.8 | -3.0 | -0.1% | ? | 4%[15.4 µM] | 20%
COc1ccc(NC(=O)N2CCC3(CC2)OCCO3)cc1 | 0.0% | -5.7 | -4.9 | -0.5% | 10% | -2% | 13%
CCOP(=O)(OCC)C(NC(=O)c1ccccc1)=C(Cl)Cl | 1.4% | 1.5 | -6.2 | 0.0% | 5% | -32%[inhibitor] | 3%
Cc1cc(N(CCCl)CCCl)ccc1C=NNC(=O)c1cccnc1 | . | . | 1.4 | -3.5% | -1% | -43%[inhibitor] | .
CCCCC(=O)N/N=C/c1c(O)n(-c2ccccc2)c(=O)[nH]c1=O | -0.1% | 0.3 | -0.1 | 0.5% | 2% | -5%[15.4 µM] | 27%
COC(=O)C1=C(c2cccc(C#N)c2)C[C@@H]2CC[C@H]1N2C(=O)NCc1cc(C)oc1C(F)(F)F | -3.9% | . | 3.5 | -0.9% | -4% | ? | .
Cc1ccccc1NC(=O)COC(=O)c1cc(C)n(C2CC2)c1C | 1.6% | . | -0.8 | 6.0% | 3% | -18% | .
CC1(C)COC(Nc2ccc(Cl)cc2)=N1 | 1.0% | 1.1 | 2.0 | -2.8% | 1% | -13% | 0%
Cc1ccc(/C=C2\C(=O)NC(=S)N(c3ccc(F)cc3)C2=O)s1 | . | 8.0 | -5.6 | 0.6% | ? | -17%[15.4 µM] | -3%

Looked up above:
Reading of `Cc1ccc(/C=C2\C(=O)NC(=S)N(c3ccc(F)cc3)C2=O)s1` in gsp ag: -17%[15.4 µM]
Reading of `COC(=O)C1=C(c2cccc(C#N)c2)C[C@@H]2CC[C@H]1N2C(=O)NCc1cc(C)oc1C(F)(F)F` in ClpP mod: -3.9%

In a second layout: entries from further up
SMILES,ClpP mod,Menin-MLL FL inh,D2 ag,PINK1 expr mod,gsp antagonist,gsp ag,Sfp inh
Cc1cc(N(CCCl)CCCl)ccc1C=NNC(=O)c1cccnc1,.,.,1.4,-3.5%,-1%,-43%[inhibitor],.
CCCCC(=O)N/N=C/c1c(O)n(-c2ccccc2)c(=O)[nH]c1=O,-0.1%,0.3,-0.1,0.5%,2%,-5%[15.4 µM],27%

Next part.
SMILES | ClpP mod | Menin-MLL FL inh | D2 ag | PINK1 expr mod | gsp antagonist | gsp ag | Sfp inh
CC(=O)Nc1cc(C(=O)N2CCC3(CC2)OCCO3)ccc1S(=O)(=O)c1ccc(C)cc1 | 0.7% | -1.7 | -1.4 | 0.5% | 3% | -3% | 6%
CC1(C)OC1COc1c2occc2cc2ccc(=O)oc12 (configuration not stated) | -1.1% | -3.7&7.0 | -0.3 | 1.1% | -6% | . | -11%&28%
c1cnc2c(c1)ccc1ncccc12 | -2.3% | 9.2 | -2.0 | -1.2% | 10% | ? | 10%
CCCCCCn1c(O)c(C=Nc2ccccc2N2CCOCC2)c(=O)[nH]c1=S | 1.8% | 17 | -4.2 | ? | -7% | 16% | 11%
O=C(O)c1cc2ccccc2oc1=O | -6.7% | -2.4 | -3.2 | 1.0% | 3% | 2% | 9%
Cc1nc2cc([N+](=O)[O-])ccc2c(=O)n1-c1ccccc1[N+](=O)[O-] | -0.1% | 6.4 | -1.2 | 0.6% | 17% | 0% | 3%
Cc1ccccc1OP(=O)(Oc1ccccc1C)N1CCOCC1 | 1.2% | . | -2.5 | 0.2% | . | . | .
Clc1ccccc1CNC1CN2CCC1CC2 (configuration not stated) | -2.6% | -0.5 | -1.3 | 1.7% | 15% | 0% | 14%
COc1ccc(-n2c(Cc3ccccc3)nc3ccccc3c2=O)cc1 | -3.6% | -1.8 | 4.2 | 1.6% | -10% | -26% | 11%
Cc1cccc(CN2CCN(CC(=O)N3CCC4(CC3)OCCO4)C2=O)c1 | -2.2% | -1.1 | 0.1 | -1.0% | 7% | 4% | 9%
COC(=O)[C@@H]1C[C@@]1(C)[C@@H](NP(=O)(c1ccccc1)c1ccccc1)c1ccccc1 | 0.1% | -1.6&-3.3 | -2.5 | -1.3% | -10% | 0% | 13%&14%
COCCCn1c(N)c(C(=O)OCCOC)c2nc3ccccc3nc21 | -1.8% | 3.0 | -0.1 | 0.0% | -9% | 11% | 6%
CCN(CC)S(=O)(=O)c1cc(NC(=O)C(C)N2CC=C(c3ccccc3)CC2)ccc1C (configuration not stated) | -1.1% | 3.5 | . | -1.4% | -1% | -4% | -8%
CSc1ncc(CN2CCCC(C(=O)c3sccc3C)C2)cn1 (configuration not stated) | . | -1.0 | -1.3 | -0.6% | 7% | 21%[15.4 µM] | -6%
CC(=O)Nc1cc([As](=O)(O)O)ccc1O | -0.4% | 0.7&-9.0&-0.7 | 1.5 | 0.8% | -5% | . | -12%&19%&-10%
CN1CCN(c2ccc([N+](=O)[O-])c(Sc3nncn3C)c2)CC1 | . | 9.5 | -3.7 | -1.1% | 7% | 8%[15.4 µM] | -13%
COC(=O)C1=C(c2ccc(C(C)=O)cc2)C[C@@H]2CC[C@H]1N2C(=O)NCc1ccc(C(F)(F)F)cc1 | -0.2% | . | 1.3 | 1.5% | -6% | -1% | .
CCN(CC(=O)Nc1ccc(NC(C)=O)cc1)C(=O)CSC(c1ccccc1)c1ccccc1 | -2.2% | . | -7.2 | 1.9% | -21% | 15% | .
CC(C)Sc1nnc([C@@H](N)Cc2ccccc2)o1 | 0.4% | 5.7 | 0.2 | 0.4% | 2% | -41%[inhibitor] | -4%
CCN(CC)C(=O)c1ccc(NC(=O)CCCSc2ccccc2)cc1 | . | 0.5 | 5.7 | 0.2% | -5% | -15% | 19%
Nc1ccc2ccc3cccc[n+]3c2c1 | . | ? | -0.9 | 3.4% | 1% | ? | -26%
NC(=O)c1cn(C2OC(CO)C(O)C2O)c2ncnc(N)c12 (configuration not stated) | 1.2%&2.6% | -2.4 | -2.9&2.7 | -1.5%&0.0% | -15%&-2% | 15% | 6%
Cn1cccc1/C=C1/C(=O)NC(=O)N(Cc2ccc(F)cc2)C1=O | . | 20 | 0.8 | 8.2% | -11% | -36%[inhibitor] | -15%
O=[N+]([O-])c1ccc2c(c1)Cc1cc(O)ccc1-2 | 1.6% | . | 1.8 | -1.0% | -10% | -5% | .
COc1ccc(O)c(C(C)(C)C)c1 | -2.3% | -2.2&-1.5 | -5.6 | 2.6% | -1% | . | 16%&20%
CCSP1(=S)N=C(N2CCOCC2)C(C#N)=C2CCCN21 (configuration not stated) | -0.8% | 0.4 | -1.1 | -0.9% | -5% | 4% | 4%

Compound profiles, from the list above:
Record of `O=[N+]([O-])c1ccc2c(c1)Cc1cc(O)ccc1-2` = ClpP mod = 1.6%; Menin-MLL FL inh = .; D2 ag = 1.8; PINK1 expr mod = -1.0%; gsp antagonist = -10%; gsp ag = -5%; Sfp inh = .
Record of `COc1ccc(O)c(C(C)(C)C)c1` = ClpP mod = -2.3%; Menin-MLL FL inh = -2.2&-1.5; D2 ag = -5.6; PINK1 expr mod = 2.6%; gsp antagonist = -1%; gsp ag = .; Sfp inh = 16%&20%
Record of `NC(=O)c1cn(C2OC(CO)C(O)C2O)c2ncnc(N)c12` (configuration not stated) = ClpP mod = 1.2%&2.6%; Menin-MLL FL inh = -2.4; D2 ag = -2.9&2.7; PINK1 expr mod = -1.5%&0.0%; gsp antagonist = -15%&-2%; gsp ag = 15%; Sfp inh = 6%

Bioassay records from PubChem BioAssay.

This is a subset, so the mix of outcomes need not match the whole.
